Source: PubChem BioAssay
GIRK2 act = activators of human GIRK2 potassium channels; P48051; 0.05% of 63,000 active; HEK293-GIRK2 thallium flux, Thallos fluorescence; calls only for hits at 25 µM;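 active = among the strongest 0.2% of first-round signals and kept after retests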;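 also: first round at about 10 µM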
Target sequence (P48051 whole entry, looked up): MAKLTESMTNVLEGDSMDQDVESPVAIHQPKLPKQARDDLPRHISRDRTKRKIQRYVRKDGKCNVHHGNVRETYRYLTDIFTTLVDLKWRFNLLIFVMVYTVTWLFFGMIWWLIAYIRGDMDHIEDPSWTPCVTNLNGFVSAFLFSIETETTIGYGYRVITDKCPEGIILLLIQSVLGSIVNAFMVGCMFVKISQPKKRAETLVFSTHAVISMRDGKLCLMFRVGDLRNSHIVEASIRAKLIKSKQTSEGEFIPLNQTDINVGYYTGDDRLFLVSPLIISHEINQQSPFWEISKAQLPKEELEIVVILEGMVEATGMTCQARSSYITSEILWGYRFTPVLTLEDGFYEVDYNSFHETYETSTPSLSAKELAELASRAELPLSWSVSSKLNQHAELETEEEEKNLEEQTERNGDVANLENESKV
Calls only; i = inactive. This is a subset; count on the stated rates, not on these rows.

SMILES | GIRK2 act
COCCN(Cc1ccoc1)C(=O)NCc1ccccc1 | i
Cn1cnc2c(NCc3ccccc3)nc(NCCO)nc21 | i
Cc1ccc(-c2cc3c(=O)n(Cc4nc(-c5cccc(Cl)c5)oc4C)ccn3n2)cc1 | i
O=C(COc1ccc(Cl)cc1Cl)N1CC(c2nc(-c3ccco3)no2)C1 | i
CC(=O)OCC(=O)[C@@]1(O)CC[C@H]2[C@@H]3CCC4=CC(=O)CC[C@]4(C)[C@H]3[C@@H](O)C[C@@]21C | i
COC(=O)c1ccccc1SC1CC(=O)N(CCc2ccccc2)C1=O (centres undefined) | i
COc1ccc(C)cc1NC(=O)COc1cc(C)nc(N2CCC(C)CC2)n1 | i
Cc1nc2cc(NC(=O)Cn3nc(-c4ccco4)ccc3=O)ccc2s1 | i
COc1ccc(-c2csc3c(=O)n(CC(=O)Nc4ccccc4)cnc23)cc1 | i
CC(C)N1CCc2c(sc(NC(=O)c3ccc(F)cc3)c2-c2nc3ccccc3s2)C1 | i
O=C(CCn1ccc(=O)[nH]c1=O)N1CCC2(CCc3ccccc3O2)CC1 | i
CCCn1c(=O)c2cc(Cl)ccc2n2c(SCC(=O)NC(C)C)nnc12 | i
C[C@@H]1CCC2C(C)(C)[C@H](O)CC[C@]2(C)[C@@]12Cc1c(O)cc3c(c1O2)CN([C@@H](CCC(=O)O)C(=O)O)C3=O (some centres undefined) | i
CCCCCCCCCCCCCCCC(=O)OC[C@H](COP(=O)([O-])OCC[N+](C)(C)C)OC(=O)CCCCCCCC(=O)/C=C/C(=O)O | i
CN(Cc1ccccc1)C(=O)C1CCN(c2cc(Oc3ccccc3)ncn2)CC1 | i
NC(=O)c1ccccc1OCC#CCNC(=O)CCSc1ccccc1 | i
COc1ccc(-c2cc(Nc3ccc4c(c3)OCO4)ncn2)cc1 | i
CCNC(=O)C(=O)NCCC1CCCCN1S(=O)(=O)c1cc(C)ccc1C (centres undefined) | i
COc1cccc(N2C(=O)C3N=NN(Cc4nc(-c5cccc(Cl)c5)oc4C)C3C2=O)c1 (centres undefined) | i
COc1ccc(CCNC(=O)N2CC(c3nc(-c4cccs4)no3)C2)cc1 | i
CN(C)CCNC(=O)C(=O)NCCC(O)c1ccoc1 (centres undefined) | i
O=C(NCC1(O)CCOc2ccccc21)c1cc(C2CC2)on1 (centres undefined) | i
O=C(NCC1CCCO1)C(=O)Nc1ccc(N2CCCS2(=O)=O)cc1 (centres undefined) | i
O=C(Nc1ccccc1C(F)(F)F)N1CCC2(CC1)OCCCO2 | i
Cc1ccc(-n2ncc3c(C)nnc(SCC(=O)Nc4ccc5c(c4)OCO5)c32)cc1C | i
CCCCN1CCN(Cc2nc(-c3ccc(N4CCSCC4)nc3)no2)CC1 | i
CC(C)C(=O)Nc1c(-c2ccccc2)c(=O)c2ccccc2n1C | i
CN(C)CCCNc1oc(-c2ccc(S(=O)(=O)N3CCCCC3)cc2)nc1C#N | i
O=C(OCc1ccccc1)C(O)c1ccccc1 (centres undefined) | i
O=[N+]([O-])c1ccc(Cl)c(S(=O)(=O)NCCOc2ccc(F)cc2)c1 | i
Clc1ccccc1Cn1ncc2c(NCC3CCCO3)ncnc21 (centres undefined) | i
O=C(NCC(O)c1ccc2c(c1)CCO2)NC(c1ccccc1)c1ccccc1 (centres undefined) | i
COC(=O)c1sccc1S(=O)(=O)Nc1cc(OC)cc(OC)c1 | i
C=C(C)CC(NC(=O)C(CO)NC(=O)CCC)C(=O)C1OC1CO (centres undefined) | i
Cc1cc(NC(=O)CSc2ncc(-c3ccccc3)n2C2CCCCC2)no1 | i
CN1CCN(c2cc(NC(=O)c3ccc4nsnc4c3)ncn2)CC1 | i
COc1cccc(CNC(=O)C(=O)NCC2OCCCN2S(=O)(=O)c2cc(C)ccc2C)c1 (centres undefined) | i
CCOc1ccccc1C(=O)Oc1c(S(=O)(=O)c2ccc(C)cc2)c(C)nn1C(C)(C)C | i
CCOC(=O)CCC(=O)Nc1nnc(-c2sc(C)nc2C)o1 | i
O=C(Nc1cccc2c(NC(=O)c3cccc(Cl)c3)cccc12)c1cccc(Cl)c1 | i

Next part (6 carried over from the part before).
SMILES | GIRK2 act
Cc1cc(NC(=O)CSc2ncc(-c3ccccc3)n2C2CCCCC2)no1 | i
CN1CCN(c2cc(NC(=O)c3ccc4nsnc4c3)ncn2)CC1 | i
COc1cccc(CNC(=O)C(=O)NCC2OCCCN2S(=O)(=O)c2cc(C)ccc2C)c1 (centres undefined) | i
CCOc1ccccc1C(=O)Oc1c(S(=O)(=O)c2ccc(C)cc2)c(C)nn1C(C)(C)C | i
CCOC(=O)CCC(=O)Nc1nnc(-c2sc(C)nc2C)o1 | i
O=C(Nc1cccc2c(NC(=O)c3cccc(Cl)c3)cccc12)c1cccc(Cl)c1 | i
CS(=O)(=O)c1ccc(NC(=O)C2(c3cc(-c4ccccc4)on3)CC2)cc1 | i
COc1ccc(CNC(=O)NCCN2CCN(C(=O)c3cccs3)CC2)cc1OC | i
COc1cccc2sc(N(CC3CCCO3)C(=O)c3cc(Cl)sc3Cl)nc12 (centres undefined) | i
C=C(C)Cn1c(=O)c2c(nc3n2CCCN3c2ccc(Oc3ccccc3)cc2)n(C)c1=O | i
COC(=O)CCn1c(=O)c2c(nc3n(-c4ccc(Cl)cc4)c(C)cn23)n(C)c1=O | i
Nc1ccc(S(=O)(=O)N2CCCc3ccccc32)cc1 | i
COc1ccc(-c2c(N)oc3cc(OCc4ccccc4Cl)ccc3c2=O)cc1OC | i
COc1ccc(NC(=O)CSc2nnc(C3CC(=O)N(c4ccc(C)cc4)C3)o2)cc1 (centres undefined) | i
COC(=O)c1ccc(Cn2cccc(-c3nc(-c4ccccc4Cl)no3)c2=O)o1 | i
O=C(NC(c1ccccc1)c1ccccc1)N1CCN(CCO)CC1 | i
Cc1cc(C)nc(Nc2nc(C(=O)N3CCN(C4CCCCC4)CC3)cs2)n1 | i
Cc1cc(C)c(S(=O)(=O)N2CCCCCC2)c(C)c1 | i
O=C1N(c2ccc(F)cc2)C2CS(=O)(=O)CC2N1c1cccc(Cl)c1 (centres undefined) | i
COCCc1noc(C2CCN(C(=O)/C=C/c3ccco3)CC2)n1 | i
N#Cc1ccc(Cl)cc1NC(=O)c1ccc(S(=O)(=O)N2CCOCC2)o1 | i
COc1ccccc1OCC#CCNC(=O)CCc1ccccc1 | i
COc1ccccc1CNC(=O)C(=O)NCCC(O)c1ccoc1 (centres undefined) | i
COc1cc(C(=O)NCCCS(=O)(=O)N2CCN(c3ccccn3)CC2)cc(OC)c1OC | i
CC(=O)N1CCN(C(=O)C(NC(=O)c2cccc(Cl)c2)S(=O)(=O)c2ccc(F)cc2)CC1 (centres undefined) | i
Cc1ccc(C)c(S(=O)(=O)N2CCc3cc(S(=O)(=O)NC4CCCC4)ccc32)c1 | i
COc1ccc(S(=O)(=O)N2CCCCC2CC(=O)NCc2ccc(Cl)cc2)cc1 (centres undefined) | i
COc1cccc(N2CCN(C(=O)CCc3nnc4ccc(-c5ccc(C)c(C)c5)nn34)CC2)c1 | i
Cc1ccc(C)c(NC(=O)CN2CCC(c3nc(-c4cccs4)no3)CC2)c1 | i
Cc1noc(C)c1S(=O)(=O)Nc1cccc(-c2csc3nc(C)c(C)c(=O)n23)c1 | i
CCc1ccccc1NC(=O)Nc1cc(N2CCC(C)CC2)ncn1 | i
COc1ccc(SCC2CCN(C(=O)C3CCN(S(C)(=O)=O)CC3)CC2)cc1 | i
COc1ccc(-c2csc3c(=O)n(CC(N)=O)cnc23)cc1 | i
COc1ccccc1CNC(=O)c1cn(-c2ccc(C)cc2)nn1 | i
COC(=O)c1ccc2c(=O)n(CC(=O)NC3CCCC3)c(=S)[nH]c2c1 | i
COc1ccccc1N1CCN(c2nccnc2SCC(=O)Nc2ccc(C)cc2)CC1 | i
O=C(NCc1ccc(F)cc1)C(=O)NCC1(O)CCc2ccccc21 (centres undefined) | i
COc1cc(Cn2nc(-c3ccco3)c3sc(N4CCCC4)nc3c2=O)cc(OC)c1 | i
COc1nn(C)cc1C(=O)Nc1nnc(-c2cc(C)nn2C)o1 | i
CCN1c2ccc(F)cc2C(=O)NC12CCN(C(=O)c1ccc(Br)cc1)CC2 | i
O=C(Cc1ccccc1)Nc1cc(OCc2ccccc2)ncn1 | i
O=c1c2nc(N3CCCCC3)sc2c(-c2cccs2)nn1CCc1ccccc1 | i
O=C(Cc1ccc(NC(=O)C2(c3ccc(F)cc3)CC2)cc1)NCC(F)(F)F | i
Cc1nc(C)c(-c2ccc(=O)n(CCNC(=O)CSc3nc4ccccc4s3)n2)s1 | i
O=C(NCCCn1ccnc1)c1ccc(-n2cccn2)nn1 | i
Cn1c(=N)c(C(=O)NCC2CCCO2)cc2c(=O)n3ccccc3nc21 (centres undefined) | i
COCCNC(=O)c1nccnc1-c1nc2ccccc2s1 | i
O=c1c(S(=O)(=O)N2CCCC2)cccn1Cc1nc(-c2cccs2)no1 | i
O=C(NCCn1nc(C2CC2)n(-c2ccccc2)c1=O)c1ccccc1 | i
Cc1c(C)n2c3c(=O)n(Cc4cccc5ccccc45)c(=O)n(C)c3nc2n1C(C)C | i
CSc1ncc(Cl)c(C(=O)N2CCN(c3ccccc3)CC2)n1 | i
O=C(Cn1ccn2nc(-c3cccs3)cc2c1=O)NCc1ccccc1F | i
COc1ccc(CCC(=O)Nc2cc(C3CC3)nn2-c2nc(C)c(C)c(=O)[nH]2)cc1 | i
CC(C)C12C=CC(C)(CC1)C1C(=O)N(c3ccc(F)cc3)C(=O)C12 (centres undefined) | i
CCOc1ccc(NC(=O)c2sccc2S(=O)(=O)N2CCN(c3cccc(C)c3)CC2)cc1 | i
CCOc1cc(C)c(S(=O)(=O)N2CC(C)OC(C)C2)cc1C (centres undefined) | i

Some of the entries so far, comma-delimited.
compound,GIRK2 act
CC(C)C12C=CC(C)(CC1)C1C(=O)N(c3ccc(F)cc3)C(=O)C12 (centres undefined),i
CCOc1ccc(NC(=O)c2sccc2S(=O)(=O)N2CCN(c3cccc(C)c3)CC2)cc1,i

Going on with the list:
SMILES | GIRK2 act
O=C(NC(=S)NCC1CCCO1)c1cccs1 (centres undefined) | i
COc1nn(C)cc1C(=O)Nc1nnc(SCC(=O)c2ccccc2)s1 | i
Cc1nccn1CC1CCN(C(=O)CCSc2ccccc2)CC1 | i
COC(=O)c1ccc(C(=O)NC(C)Cc2cccs2)cc1 (centres undefined) | i
O=C(/C=C/c1ccccc1)Nc1ccc2c(c1)OCCO2 | i
O=C(CCC(=O)c1ccccc1)NCCOc1cccc2cccnc12 | i
Nc1nc(SCC(=O)NCCc2ccccc2)n[nH]1 | i
COc1cccc(C(O)CN2CCN(c3ccccc3)CC2)c1 (centres undefined) | i
NC(=O)N1C(=O)C=CC1=O | i
Cc1ccc2nc(C3CN(C(=O)C(C)Oc4ccccc4)C3)[nH]c2c1 (centres undefined) | i

Laid out differently: 4 of the compounds above.
SMILES: COC(=O)c1ccc(C(=O)NC(C)Cc2cccs2)cc1 (centres undefined)
  GIRK2 act: i
SMILES: O=C(/C=C/c1ccccc1)Nc1ccc2c(c1)OCCO2
  GIRK2 act: i
SMILES: O=C(CCC(=O)c1ccccc1)NCCOc1cccc2cccnc12
  GIRK2 act: i
SMILES: Nc1nc(SCC(=O)NCCc2ccccc2)n[nH]1
  GIRK2 act: i

Additional structures:
SMILES | GIRK2 act
COC(=O)c1ccsc1NC(=O)C1COCC(=O)N1Cc1ccccc1 (centres undefined) | i
O=C(CSc1ccc(F)cc1)NCC1CCN(Cc2ccco2)CC1 | i
Cc1nc(-c2cccs2)sc1CNC(=O)Cc1cn(C)c2ccccc12 | i
O=S(=O)(Nc1ccc(F)cc1)c1ccccc1F | i
Cc1ccccc1C(=O)N1CCC(Oc2ccc(C(F)(F)F)cn2)CC1 | i
COc1cc2nc(NC(=O)c3cc(-c4ccco4)on3)sc2cc1OC | i
COc1cccc2cc(C(=O)Nc3cccc4nsnc34)c(=O)oc12 | i
CCCC(CC(=O)O)c1c2c(c(O)c3c1OC(C)C(C)C3=O)C=CC(C)(C)O2 (centres undefined) | i
CCCCCn1c(=S)[nH]c2cc(C(=O)N3CCN(c4ccccc4)CC3)ccc2c1=O | i
Cc1c(C(=O)NCc2nn(C3CCCC3)c(=O)c3ccccc23)cnn1-c1ccccc1 | i
COc1ccc(NC(=O)Nc2ccc3c(c2)C(=O)Nc2ccccc2O3)cc1OC | i
O=C(NCCNc1ccc(Nc2cccnc2)nn1)c1cccc(C(F)(F)F)c1 | i
COCCN(Cc1ccoc1)S(=O)(=O)c1ccc(OC(F)(F)F)cc1 | i
COc1ccc(/C=C2\Oc3cc(OCC(=O)O)ccc3C2=O)c(OC)c1 | i
O=C(Cc1ccccc1Cl)NCc1cnn2ccccc12 | i
Cc1cc(C)c2c(n1)nn1c(N3CCN(C/C=C/c4ccccc4)CC3)cc(C)nc21 | i
O=C(C(=O)N1CCN(c2ncnc3c2nnn3-c2ccccc2)CC1)c1c[nH]c2ccccc12 | i
C=C(C)COc1ccc2c(C)c(-c3cc(OC)ccc3OC)c(=O)oc2c1 | i
Cc1ccc2c(c1)N(C(=O)CSc1ncnc3nc(N4CCc5ccccc5C4)sc13)CCO2 | i
COc1ccc(CNC(=O)c2[nH]c3ccc(C)cc3c2NC(=O)c2ccc(Cl)cc2)cc1OC | i

5 of the compounds above, with values ahead of the structure:
GIRK2 act | canonical_smiles
i | COc1ccc(NC(=O)Nc2ccc3c(c2)C(=O)Nc2ccccc2O3)cc1OC
i | O=C(NCCNc1ccc(Nc2cccnc2)nn1)c1cccc(C(F)(F)F)c1
i | COCCN(Cc1ccoc1)S(=O)(=O)c1ccc(OC(F)(F)F)cc1
i | COc1ccc(/C=C2\Oc3cc(OCC(=O)O)ccc3C2=O)c(OC)c1
i | O=C(Cc1ccccc1Cl)NCc1cnn2ccccc12

Additional results:
SMILES | GIRK2 act
O=C(NCCc1ccccc1)Nc1ccc(-c2cnc3n2CCC3)cc1 | i
COc1ccc(N2CC(C)Cn3c2nc2c3c(=O)n(C/C=C/c3ccccc3)c(=O)n2C)c(OC)c1 (centres undefined) | i
O=C1Cc2cc(NS(=O)(=O)c3ccc(Cl)s3)ccc2N1 | i
CC(=C\C(=O)O)/C=C(\C)CC(C)CCCCCC(O)C(CO)C(=O)O (centres undefined) | i
Cc1nc(C)c(CC(=O)NCc2ccccc2)s1 | i
